Screens (PubChem)
D2 ag = human D2 receptor agonism in beta-arrestin assay. activation, % (no concentration beside the values). 360,000 compounds, 0.084% hits. DiscoveRx PathHunter D2 beta-arrestin, luminescence, 90 min; 100% = 57 uM dopamine signal. P14416; in the data active = activation above about 40%; inconclusive = about 15% to 40%; inactive = below about 15%; further: compound concentration not given in the record; the text of the record calls up to 30% inactive
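Agonist mode: compounds alone added to overnight-plated D2 PathHunter cells for 90 min at 37 C, with 57 uM final dopamine (EC100) defining full response. Beta-arrestin recruitment detected by chemiluminescent reagent, read after 1 h at ambient temperature.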
Six1-Eya2 inh = blocks human Six1 binding to Eya2; 360,000 compounds, 0.56% hits; Q15475+O00167; activity change, % (no concentration beside the values); AID 651725; AlphaScreen GST-Six1/His-Eya2 binding, biochemical; stronger effect = lower value; control for the full effect not named in the record; in the data active = activity change below about -65%; inconclusive = about -30% to -65%; inactive = above about -30%; further: on the % scale 0 is the no-effect control and ±100 the full control effect
Target sequence (O00167 whole entry, looked up): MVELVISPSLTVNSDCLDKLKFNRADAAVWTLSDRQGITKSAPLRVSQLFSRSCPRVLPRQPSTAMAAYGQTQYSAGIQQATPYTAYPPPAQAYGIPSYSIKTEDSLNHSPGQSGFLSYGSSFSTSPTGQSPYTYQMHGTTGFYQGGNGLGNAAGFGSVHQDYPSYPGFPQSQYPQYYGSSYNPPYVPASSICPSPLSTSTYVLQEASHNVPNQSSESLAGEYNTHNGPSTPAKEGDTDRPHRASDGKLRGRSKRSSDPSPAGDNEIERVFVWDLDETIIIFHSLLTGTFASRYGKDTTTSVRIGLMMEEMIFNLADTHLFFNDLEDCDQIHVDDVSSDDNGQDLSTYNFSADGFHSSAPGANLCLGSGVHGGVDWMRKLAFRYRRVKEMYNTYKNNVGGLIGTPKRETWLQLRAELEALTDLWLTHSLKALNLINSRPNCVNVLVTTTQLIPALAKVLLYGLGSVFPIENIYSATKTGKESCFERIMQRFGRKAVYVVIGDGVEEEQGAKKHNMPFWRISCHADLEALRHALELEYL
Target sequence (Q15475 whole entry, looked up): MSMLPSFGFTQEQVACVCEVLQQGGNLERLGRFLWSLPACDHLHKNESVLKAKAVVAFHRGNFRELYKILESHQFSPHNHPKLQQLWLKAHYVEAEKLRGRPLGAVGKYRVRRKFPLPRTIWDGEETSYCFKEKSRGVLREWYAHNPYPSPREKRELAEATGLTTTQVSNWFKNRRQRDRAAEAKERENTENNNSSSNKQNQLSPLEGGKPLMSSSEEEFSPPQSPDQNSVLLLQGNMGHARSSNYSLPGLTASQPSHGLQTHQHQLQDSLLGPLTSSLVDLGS
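AlphaScreen with GST-Six1 and His-Eya2 (5X mix: 250 nM and 500 nM), glutathione donor and nickel acceptor beads; buffer 50 mM Tris pH 8.0, 300 mM NaCl, 1 mM TCEP; 1 h at 37 C in the dark.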
CtBP-E1A blk = CtBP/E1A binding inhibition | AlphaScreen GST-E1A/His-CtBP binding, 1536-well; stronger effect = lower value; control for the full effect not named in the record | activity change, % (test concentration not listed) | 340,000 compounds, 0.49% hits; in the data active means activity change below about -65%; inconclusive means about -30% to -65%; inactive means above about -30%; further: on the % scale 0 is the no-effect control and ±100 the full control effect
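Steps: dispense buffer (Tris pH 8.0, NaCl 300 mM, TCEP 1 mM, BSA, Tween 20); add 5X protein mix (GST-E1A, His-CtBP, 125 nM each); pin 23 nL compound; 2 h at 37 °C, dark; add 5X beads (50 ug/mL); 1 h; read.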
D2 potentiator = positive allosteric modulators of human D2 dopamine receptor; P14416; DiscoveRx D2 beta-arrestin cells, luminescence, 90 min; 100% = 57 uM dopamine signal; potentiation, % (concentration not given with the values); 360,000 compounds, 0.23% hits; active = potentiation of 50% or more; inconclusive = 30% to 50%; inactive = 30% or less;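 further: tested on top of an EC20 dose of dopamine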
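PathHunter beta-arrestin assay in DiscoveRx D2 cells. Compounds were added with an EC20 of dopamine (50 nM final) for 90 min at 37 deg C. Luminescence was read 1 h after detection reagent, with 57 uM dopamine as the EC100 control.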
Sfp inh = inhibitors of Bacillus subtilis Sfp phosphopantetheinyl transferase; Potency, µM, without a hit: max response, negative = inhibition, usual class: inhibitors; Q9F4F7; AID 1490; Biochemical Sfp PPTase activity, qHTS; 310,000 compounds, 3.5% hits; active means well fitted inhibition curve with a large enough effect; inconclusive means small, poorly fitted or top-dose-only effect, or another doubt; inactive means no such curve, though single readings can be large or run the other way;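 further: the enzyme is Sfp with the accession as filed and its product quenches rhodamine fluorescence; potency means the concentration at half of the fitted maximal effect; 0% = enzyme reaction without inhibitor and -100% = no enzyme wells; top concentration of the series not given in the record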
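With Hepes-Na pH 7.6 buffer containing 10 mM MgCl2, Sfp (15 nM) modified BHQ-2-YbbR (12.5 uM) using rhodamine-CoA (5 uM). Two reads 30 minutes apart at 525/598 nm yielded each well's rate.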
TRPV1 potentiator = enhances activation of the human vanilloid receptor TRPV1; potentiation, % at 8.33 µM; 320,000 compounds, 0.02% hits; TRPV1-expressing cells, Fluo-8 calcium influx, capsaicin EC20 potentiation; host cell line not named in the record; control for the full effect not named in the record; AID 540277; Q8NER1; active means potentiation above 80%; inconclusive means 30% to 80%; inactive means below 30%; further: 0% is about no effect
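Cells expressing TRPV1 were dye-loaded with Fluo-8 and read kinetically: 10 s baseline, 3 min after compound (agonist portion), then 2 min after EC20 capsaicin (allosteric enhancer portion). Calcium-bound dye fluorescence at 480/520 nm.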
PINK1 modulator = modulators of PINK1 expression. PINK1 immunofluorescence, high-content cytometry, 24 h. Potency, µM (highest dose often 76.6 µM), inactives show at the highest dose activation (PINK1 increase), most hits filed as activators. 410,000 compounds, 0.2% hits. AID 624263; active = well fitted activation curve with a large enough effect; inconclusive = small, poorly fitted or top-dose-only effect; inactive = flat fitted curve, though single readings scatter; cell line not stated here;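 further: potency means the concentration at half of the fitted maximal effect; % of control where 0% means no effect; nearly all actives have a fitted effect of over 65% in size; a mitochondrial uncoupler was the plate control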
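Measures PINK1 amount and localization on or inside mitochondria by immunofluorescence. Stable cells get compounds at 5 concentrations for 24 hours before fixation and staining; CCCP controls included.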
Active calls of the source: *; ? = inconclusive; / = not tested or not shown; [ ] = another dose, or the depositor's remark.

SMILES	D2 ag	Six1-Eya2 inh	CtBP-E1A blk	D2 potentiator	Sfp inh	TRPV1 potentiator	PINK1 modulator
C[C@H]1CN([C@@H](C)CO)C(=O)c2cc(Br)cnc2O[C@H]1CN(C)C(=O)c1ccccn1	-1.3	8	-4	3	/	/	-0.7%
Cc1ccc(CN(C(=O)COc2cccc(C)c2C)C2CCS(=O)(=O)C2)o1 (stereo unspecified)	-5.1	-2	-6	-3	7%	5	0.5%
COc1cc(C=O)ccc1OCC(=O)Nc1ccc2c(c1)OCO2	-4.5	-15	-15	-7	15%	11	0.6%
N#CC(C#N)=CN=c1ccn(Cc2ccc(Cl)cc2Cl)cc1	1.1	0	/	-8	12%	-12	25%
COC(=O)c1ccc(COc2ccc(NC(C)=O)cc2)o1	-3.5	-2	-21	3	14%	5	2.4%
CCOC(=O)c1cnc(C(F)(F)F)nc1Oc1ccccc1	-5.9	6	12	0	18%	/	2.8%
CC(=O)c1cc2cccc(OC3(C)CCN(Cc4ccc(-c5ccccn5)cc4)C3)c2o1 (stereo unspecified)	9.4	-18	-10	-12	/	/	0.4%
Cc1ccc(NC(=O)c2ccco2)c(NC(=O)COc2ccccc2)c1	-2.6	0	3	-5	3%	8	3.4%
CN1CCCC1CN1CCCC1 (stereo unspecified)	-4.7	12	8	-5	/	/	0.8%
CC1CN(c2ccc(NS(=O)(=O)c3ccccc3)cc2C(=O)O)CC(C)O1 (stereo unspecified)	-1.3	1	8	-3	6%	-13	2.1%
COc1ccc(S(N)(=O)=O)cc1C(=O)NNC(=O)CN(C)S(=O)(=O)c1ccc(Cl)cc1	0.2	1	1	-4	/	-13	-1.0%
COc1ccc([N+](=O)[O-])cc1NC(=O)CCN1CCN(C)CC1	0.6	-2	6	-3	12%	-15	-0.3%

Full records from above. Order of values: D2 ag, Six1-Eya2 inh, CtBP-E1A blk, D2 potentiator, Sfp inh, TRPV1 potentiator, PINK1 modulator
Listed for COC(=O)c1ccc(COc2ccc(NC(C)=O)cc2)o1 = -3.5, -2, -21, 3, 14%, 5, 2.4%
Listed for Cc1ccc(CN(C(=O)COc2cccc(C)c2C)C2CCS(=O)(=O)C2)o1 (stereo unspecified) = -5.1, -2, -6, -3, 7%, 5, 0.5%
Listed for CC1CN(c2ccc(NS(=O)(=O)c3ccccc3)cc2C(=O)O)CC(C)O1 (stereo unspecified) = -1.3, 1, 8, -3, 6%, -13, 2.1%
Listed for COc1cc(C=O)ccc1OCC(=O)Nc1ccc2c(c1)OCO2 = -4.5, -15, -15, -7, 15%, 11, 0.6%
Listed for N#CC(C#N)=CN=c1ccn(Cc2ccc(Cl)cc2Cl)cc1 = 1.1, 0, /, -8, 12%, -12, 25%

Additional compounds:
SMILES	D2 ag	Six1-Eya2 inh	CtBP-E1A blk	D2 potentiator	Sfp inh	TRPV1 potentiator	PINK1 modulator
O=C(Cc1cccs1)Nc1ccc(N2CCOCC2)cc1	-4.5	2	9	-4	-8%	/	-1.3%
CN(C)S(=O)(=O)c1cccc(NC(=O)COc2nc3ccccc3nc2N2CCOCC2)c1	-1.0	10	1	-23	-7%	5	1.7%
COc1ccc(NC(=S)N/N=C/c2cccn2Cc2ccc(F)cc2)cc1	-0.2	-21	?	-15	10%	-15	7.6%
CC(=O)OC1COC(N2CCc3cc([N+](=O)[O-])ccc32)C(OC(C)=O)C1OC(C)=O (stereo unspecified)	-5.4	3	3	-12	16%	/	-1.7%
Cc1cc(C)c(NC(=O)c2ccccc2C(=O)c2ccccc2)c(C)c1	-1.4	-4	-10	-3	7%	-5	2.5%
Nc1ccccc1N=c1ssnc1Cl	-1.2	-12	-17	-2	1.6µM*	3	1.5%
O=C(c1scc2c1CCCC2)N1CCOCC1	-0.4	4	-2	-3	12%	-3	0.6%
COc1cc(/C=N/NC(=O)c2cc(-c3c(C)nn(-c4ccccc4)c3C)n[nH]2)ccc1O	12	?	?	9	2%	2	7.7%
O=C1Nc2cc(C(=O)NCCCN3CCOCC3)ccc2S/C1=C/c1ccccc1F	-4.2	-16	-27	-32	-22%	-13	3.7%
CCOC(=O)Cn1nc(C)c(-c2ccccc2)c1N	-2.5	2	5	-10	16%	-6	0.3%[38.3 µM]
COc1ccccc1NC(=O)Cn1c(=O)n(-c2ccccc2)c(=O)c2oc3ccccc3c21	0.4	5	9	-6	-23%	-5	?
CC(=O)Nc1ccc(Oc2nc(-c3ccccn3)nc3ccccc23)cc1	-4.5	?	-2	-8	?	2	-0.6%
c1cnc2c(SCc3ccc(-c4nnco4)cc3)cccc2c1	-1.1	-24	?	-28	?	?	1.2%
CC1Cc2ccccc2N1S(=O)(=O)c1cccc(C(=O)OCC(=O)NC2CCS(=O)(=O)C2)c1 (stereo unspecified)	-3.6	12	6	-7	-5%	-6	1.8%
O=C(COC(=O)c1ccc(C(F)(F)F)cc1)Nc1cccc(S(=O)(=O)NC2=NCCCCC2)c1	4.0	-3	0	-1	/	/	3.8%
CCOC(=O)Cc1csc(NC(=O)c2cnc3sc(C)cn3c2=O)n1	-2.0	3	-1	-5	2%	1	7.0%
COc1ccc(/C=C/C(=O)NC(=S)Nc2ccccc2C(=O)NC2CCCCC2)cc1	0.7	5	6	-3	6%	24	/
CC(C)c1ccc(C(O)c2nc3ccccc3n2C)cc1 (stereo unspecified)	7.3	-5	/	-23	3%	-4	0.9%
COc1cc(NC(=O)CN(c2ccc(C)cc2)S(=O)(=O)c2c(C)n[nH]c2C)cc(OC)c1	-1.4	1	7	-39	-11%	-17	1.1%
CC(C)=CCC/C(C)=C/COc1c2occc2cc2ccc(=O)oc12	1.8	4	7	-1	-5%	/	3.1%
Cn1c(=O)c2c(nc(N3CCCCC3)n2CC(O)COc2ccccc2)n(C)c1=O (stereo unspecified)	-5.5	-2	/	-16	22%	22	0.5%
CC(=O)OCCCNc1cc(Sc2nc3ccccc3s2)c2nonc2c1[N+](=O)[O-]	0.5	-9	-4	2	2.5µM*	-12	3.9%
O=C(Nc1ccccc1)C1CC(=O)N(Cc2ccccc2)C1 (stereo unspecified)	-0.4	4	3	-3	3%	0	-1.7%
N#Cc1ccncc1Sc1ccc(Cl)cc1	1.7	16	15	-4	2%	24	2.0%

Part of the list above in order of length of the SMILES, ascending.
SMILES	D2 ag	Six1-Eya2 inh	CtBP-E1A blk	D2 potentiator	Sfp inh	TRPV1 potentiator	PINK1 modulator
CCOC(=O)Cc1csc(NC(=O)c2cnc3sc(C)cn3c2=O)n1	-2.0	3	-1	-5	2%	1	7.0%
COc1cc(NC(=O)CN(c2ccc(C)cc2)S(=O)(=O)c2c(C)n[nH]c2C)cc(OC)c1	-1.4	1	7	-39	-11%	-17	1.1%
O=C(COC(=O)c1ccc(C(F)(F)F)cc1)Nc1cccc(S(=O)(=O)NC2=NCCCCC2)c1	4.0	-3	0	-1	/	/	3.8%

Continued:
SMILES	D2 ag	Six1-Eya2 inh	CtBP-E1A blk	D2 potentiator	Sfp inh	TRPV1 potentiator	PINK1 modulator
Cc1nnc(SCc2ccc(Cl)c(Cl)c2)s1	1.0	22	18	-1	7%	-9	8.2%
CCOC(=O)N1CCN(C(=O)c2ccc3c(=O)n(CCOC)c(=O)[nH]c3c2)CC1	-2.0	7	4	10	-4%	2	-0.8%
O=[N+]([O-])c1ccc(Oc2ccc(S(=O)(=O)N3CCOCC3)cn2)cc1	-2.3	1	3	9	/	-17	-1.5%
CC(C)(C)c1nnc(N/N=C/c2ccc(O)cc2)n(N)c1=O	-3.5	1	1	-4	?	12	-1.3%
COc1cccc(CN2CC(C(=O)NCCn3cccn3)CCC2=O)c1 (stereo unspecified)	-1.5	3	10	-2	18%	4	0.2%
Cc1c(C(=O)N2CCN(S(=O)(=O)c3ccccc3F)CC2)oc2c(Cl)cccc12	-5.4	-2	-20	-2	/	24	-1.1%
COc1ccc(NS(=O)(=O)c2cn(C)cn2)cc1	1.0	2	-1	-8	8%	8	-0.4%
CC(CC(=O)NCCc1ccc(Cl)cc1)S(=O)(=O)c1ccc2c(c1)NC(=O)CO2 (stereo unspecified)	-6.5	2	1	-3	1%	-5	0.2%
CCn1cnc2c1c(=O)n(CC(=O)NCC(C)C)c(=O)n2Cc1ccccc1	-7.3	2	3	-6	7%	-3	-3.1%
COc1cccc(N2CCN(c3ccc4nnc(CCC(=O)Nc5ccc(C)cn5)n4n3)CC2)c1	6.6	-16	-11	-41	1%	6	-0.8%
CC(C)(C)c1cc(C(=O)NCC(=O)OCC(=O)c2cccc([N+](=O)[O-])c2)cc(C(C)(C)C)c1	-4.3	-12	-6	-37	2%	?	-1.6%
Cc1ccc(CN2CC(C(=O)Nc3cc(S(C)(=O)=O)ccc3Cl)CC2=O)cc1 (stereo unspecified)	-2.5	1	7	-45	8%	10	-0.1%
O=C(C1=C(O)C(=O)N(c2ncccn2)C1c1ccc(Cl)c(Cl)c1)c1ccco1 (stereo unspecified)	-1.3	-13	6	2	56µM*	-7	-1.7%[38.3 µM]
CN(Cc1ccccc1)C(=O)c1ccc(NC(=O)Cc2ccc(NC(=O)C3CCCN(C(=O)C4CCCC4)C3)cc2)cc1 (stereo unspecified)	-2.7	1	-13	/	/	/	1.8%
CCCn1c2c(c(=N)c3c1CCC3)CCCC2	-0.9	-1	14	-14	-6%	3	-2.5%
Cc1oc2c(CN3CCCC3)c(O)ccc2c(=O)c1-c1ccccc1	-3.2	2	14	-8	11%	1	7.6%[38.3 µM]
Cc1oc2c(c1C(=O)c1ccc(Cl)cc1)C(=O)C(=O)c1ccccc1-2	15	-1	-1	109*	?	7	-5.9%
CC12CCC(C(=O)N3CCN(c4ccccc4)CC3)(CC1=O)C2(C)C (stereo unspecified)	1.9	-3	0	9	0%	-7	-0.9%
COCCCNC(=O)C1CCN(S(=O)(=O)c2ccc3nc4c(c(C(=O)O)c3c2)CCCCC4)CC1	-2.2	1	1	0	31%[activator]	-4	0.6%
CCOC(=O)c1cccc(NC(=O)CCOc2ccccc2)c1	1.8	-4	/	-6	12%	-10	-0.6%
CC1CCN(C(=O)COc2ccc(Nc3ccccc3)cc2)CC1	1.5	-20	-20	-6	12%	-16	0.1%
